motility: Vibrio cholerae motility inhibitors, OD read-out (AID 588778) | Vibrio cholerae motility, OD read-out; higher % means a stronger effect; test concentration not given here; primary cut-off and reference of the scale not given here; strong numbers were not always called active | one-dose inhibition, %; IC50 in µg/mL for titrated hits | 10,000 tested, under 10 active; in the data active = confirmed in a dose series; inconclusive = primary hit not retested
motility viability: also measured in motility; calls as there; inhibition, %; measured here: bacterial viability at 10 ug/mL;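 higher means fewer living bacteria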
Starred values were filed as active, the others as inactive; i = inactive; ? = inconclusive; nt = no result given. An excerpt, so the mix of outcomes need not match the whole.

#1 COc1ccc(C=O)c(C(=O)O)c1OC
#2 COc1cc(/C=C2\C(=O)NC(=O)N(Cc3ccccc3)C2=O)ccc1OC(=O)c1cccs1
#3 COc1ccc(C(=O)C2CC(C)(C)NC(C)(C)C2)cc1OC
#4 O=C(Nc1ccc2c(c1)oc1ccccc12)c1ccccc1I
#5 COc1ccccc1CNC(=O)C(=O)Nc1cccc(C)c1C
#6 Clc1cc(NCc2cccs2)ccc1N1CCOCC1
#7 COc1ccccc1NC(=O)C1CC(=O)Nc2ncnn21 (centres undefined)
#8 N#Cc1c2c(c(=S)n(-c3ccccc3)c1N)CCCC2
Compound | 1 | 2 | 3 | 4 | 5 | 6 | 7 | 8
motility | 16% | -5% | -24% | -26% | -6% | 14% | 3% | 9%
motility viability | 21 | -7 | -13 | -9 | -4 | 34 | 1 | -3

#9 C=C(C)c1ccccc1NC(=O)CCN1C(=O)c2ccccc2S1(=O)=O
#10 Cc1cccc(Nc2nc(N)nc(CC(=O)CSc3ccc(Cl)cc3)n2)c1
#11 O=C(c1csc2c1CCCC2)N1CCC2(CC1)OCCO2
#12 O=C1C2c3ccccc3CCN2C(=O)CN1CCc1ccccc1 (centres undefined)
#13 Cn1c(SCc2ccc(C#N)cc2Cl)nc2ccccc21
#14 O=C(NCc1ccc(Cl)c(Cl)c1)C(c1ccccc1)c1ccccc1
#15 COC(=O)c1cc(NC(=O)CCSc2ccccc2)ccc1Cl
#16 O=C(O)c1ccc(CN2CCC(Cc3ccccc3)CC2)cc1
Compound | 9 | 10 | 11 | 12 | 13 | 14 | 15 | 16
motility | 2% | 33% | 2% | 3% | 21% | 4% | 6% | -10%
motility viability | -7 | 8 | 3 | 10 | -4 | 12 | -2 | -7

#17 COc1ccc(N2CCN(c3nc(OC)nc(OC)n3)CC2)cc1
#18 CCOC(=O)C1SC2(C(F)(F)C(F)F)CC1(O)c1c(c(OC)c3occc3c1OC)O2 (centres undefined)
#19 COC(=O)c1ccc(C(=O)OC)c(Nc2ncnc(N)c2[N+](=O)[O-])c1
#20 Cc1c(Br)ccc(NS(=O)(=O)c2ccccc2)c1C
#21 CCCCSc1nc(O)c(C(c2ccccc2)c2ccccc2)c(=O)[nH]1
#22 CCOC(=O)NC(=O)CSc1nc2ccccc2o1
#23 O=c1c(Cl)c(N2CCOCC2)cnn1C12CC3CC(CC(C3)C1)C2
#24 CCc1cc2cc(C(=O)N3CCN(c4ccccc4)CC3)sc2s1
Compound | 17 | 18 | 19 | 20 | 21 | 22 | 23 | 24
motility | 14% | 1% | -5% | 4% | 33% | 6% | 12% | -6%
motility viability | -10 | 2 | -9 | 0 | 10 | 11 | 3 | 3

#25 CSc1nc2sc3c(c2c(=S)[nH]1)CCCC3
#26 COc1ccc(-c2cc(-c3ccc(F)cc3)nc(N3CCOCC3)n2)cc1
#27 CC1=C(C(=O)Nc2cc(C)ccc2C)C(c2ccccc2Br)NC(=S)N1 (centres undefined)
#28 Cc1ccc(C(=O)NCCNC(=O)c2ccc(C)nc2)cn1
#29 CCn1c(CCNC(=O)c2ccc(Cl)cc2Cl)n[nH]c1=S
#30 c1ccc2c(c1)ncn2CC1CCCCC1
#31 Fc1ccccc1N1CCN(C2CCN(Cc3ccccc3C(F)(F)F)CC2)CC1
#32 C#CC(CC)(CC)NC(=O)c1ccc(Cl)s1
Compound | 25 | 26 | 27 | 28 | 29 | 30 | 31 | 32
motility | 31% | 3% | -6% | 3% | 2% | 25% | -12% | 13%
motility viability | 5 | -1 | -2 | 2 | -2 | 6 | -4 | 7

#33 O=C(CSc1nc2[nH]ncc2c(=O)n1-c1ccccc1)Nc1nsc(-c2ccccc2)n1
#34 O=Cc1cccc(OCc2cccc(F)c2)c1
#35 CCCC1Cc2c(sc(N)c2C#N)CO1 (centres undefined)
#36 COc1ccc(CCNC(=S)N2CCN(S(C)(=O)=O)CC2)cc1OC
#37 COc1ccc(CSc2n[nH]c(-c3ccccc3OC(C)C)n2)cc1Br
#38 Cn1nnnc1NCc1cccc(Cl)c1Cl
#39 Cc1cc(C)n(CC(O)CN2c3ccccc3Sc3ccccc32)n1 (centres undefined)
#40 COc1ccc2cnn(-c3ccccc3)c(=O)c2c1OC
Compound | 33 | 34 | 35 | 36 | 37 | 38 | 39 | 40
motility | 25% | 4% | 0% | 20% | -15% | 2% | -8% | 12%
motility viability | 9 | 0 | 7 | 33 | -2 | -3 | 0 | 5

#41 COCCn1c(CCc2ccccc2)nnc1SCC(=O)Nc1ccc(Cl)c(C(F)(F)F)c1
#42 CCOC(=O)c1nc(Nc2ccc(S(=O)(=O)Nc3ncccn3)cc2)c2ccccc2n1
#43 Cc1ccc(NC(=O)CNS(=O)(=O)c2ccccc2)c(C(=O)c2ccccc2)c1
#44 Cc1ccc(OC(=O)c2ccc3nc(C)sc3c2)cc1
#45 Cc1ccc(NC(=O)CSc2ncccn2)cc1C
#46 CCCCNC(=O)Nc1ccc(C23CC4CC(CC(C4)C2)C3)cc1C
#47 Cc1nnc(NC(=O)CSc2nnc(Cc3ccccc3)n2Cc2ccccc2)s1
#48 Cc1ccc2oc(-c3cccc(NC(=O)Cc4cccs4)c3)nc2c1
Compound | 41 | 42 | 43 | 44 | 45 | 46 | 47 | 48
motility | 5% | -10% | -3% | 5% | -1% | -13% | -3% | 7%
motility viability | -3 | -8 | 2 | 0 | 2 | -8 | -3 | 0

#49 Cc1ccc(NC(=O)CSCCO)cc1C
#50 COc1ccc(N(C=O)C(C(=O)Nc2c(C)cccc2C)c2ccc(Cl)cc2)cc1 (centres undefined)
#51 NC(=O)CC(NSc1ccccc1[N+](=O)[O-])C(=O)O (centres undefined)
#52 COc1cc(C(=O)NC(=S)Nc2ccccc2I)cc(OC)c1OC
#53 CC(=O)c1ccc(NC(=O)Nc2ccc(CC(=O)O)cc2)cc1
#54 CC(=O)Oc1ccccc1C(=O)NCCC1=CCCCC1
#55 O=C(O)CNC(=O)c1cc2ccccc2cc1O
#56 CCOC(=O)c1ccc(NC(=O)CSCc2c(Cl)cccc2Cl)cc1
Compound | 49 | 50 | 51 | 52 | 53 | 54 | 55 | 56
motility | 23% | 5% | -13% | -1% | 4% | ? | -7% | 0%
motility viability | 12 | 0 | -3 | 2 | -3 | nt | 0 | -5

#57 Cc1cc(C)c(C#N)c(SCCS(=O)(=O)Cc2ccc(Cl)cc2)n1
#58 O=S(=O)(c1cccs1)N1CCN(c2ncccn2)CC1
#59 O=C(Cc1cccs1)Nc1ccon1
#60 COc1ccc(OC)c(NC(=S)NCCc2cnc[nH]2)c1
#61 Cc1nc(Nc2nc(CSc3ccc(Cl)cc3)cc(=O)[nH]2)nc2c(C)cccc12
#62 Cc1ccc2nc(/C(C#N)=C/c3ccc(-c4ccc5c(c4)C(=O)NC5=O)o3)[nH]c2c1
#63 NS(=O)(=O)c1ccc(NC(=O)CCN2C(=O)S/C(=C\c3ccc(Cl)cc3)C2=O)cc1
#64 Ic1ccc(Nc2nc(-c3cccnc3)nc3ccccc23)cc1
Compound | 57 | 58 | 59 | 60 | 61 | 62 | 63 | 64
motility | 3% | -5% | 19% | 1% | -10% | -7% | -5% | -20%
motility viability | -1 | -5 | 6 | -1 | -7 | 2 | -9 | -11

#65 Cc1c(Cl)cccc1Nc1c2c(nc3ccccc13)CCC2
#66 CSc1ccc(C2C(C(=O)c3sc(C)nc3C)=C(O)C(=O)N2Cc2cccnc2)cc1 (centres undefined)
#67 Fc1ccccc1-n1c(-c2ccc3ccccc3n2)n[nH]c1=S
#68 O=C(CCCc1c[nH]c2ccccc12)NCCSc1ccccc1
#69 NC(=O)C(CNS(=O)(=O)c1ccc(Cl)cc1)Sc1ncccn1 (centres undefined)
#70 CC(C)(C)c1ccc(OC(=O)C2CCC(N3C(=O)C4CCCCC4C3=O)CC2)cc1 (centres undefined)
#71 CCOC(=O)c1cc(CC)sc1NC(=O)C#Cc1ccccc1
#72 O=C(Nc1ccc(-c2nc3ccccc3[nH]2)cc1)c1cc(-n2cnnc2)ccc1Cl
Compound | 65 | 66 | 67 | 68 | 69 | 70 | 71 | 72
motility | 69% | -9% | 3% | 13% | -16% | 15% | -18% | -3%
motility viability | 18 | -4 | 2 | 4 | -6 | 11 | -6 | 2

#73 COc1ccc(-c2nnnn2CCc2ccccc2)cc1
#74 CNS(=O)(=O)c1ccc(NC(=S)Nc2ccc3c(c2)OCO3)cc1
#75 CCC(NC(=O)NCc1cccnc1)(C(F)(F)F)C(F)(F)F
#76 CCSc1ccccc1C(=O)Nc1nc2c(s1)C(=O)CC(C)(C)C2
#77 O=c1[nH]c(C(F)(F)F)nc2ccccc12
#78 O=C(NCCOc1ccccc1)C(=O)c1c[nH]c2ccccc12
#79 N#Cc1sc2nc(N3CCCCC3)c3c(c2c1N)CCCC3
#80 OC(COc1ccc2c(c1)CCC2)COc1ccc2c(c1)CCC2
Compound | 73 | 74 | 75 | 76 | 77 | 78 | 79 | 80
motility | -5% | 16% | 1% | 4% | 26% | 2% | -7% | -17%
motility viability | 1 | 0 | 0 | -1 | 7 | -3 | -4 | 1

#81 COC(=O)c1ccccc1NC(=O)NNC(=O)c1csc2ccccc12
#82 Cc1noc(C)c1CSc1ccc2ccccc2n1
#83 CCCN1C(=O)c2ccccc2NC1c1ccc(Cl)c(Cl)c1 (centres undefined)
#84 OC(COc1ccccc1Cl)CN1CCN(C(c2ccccc2)c2ccccc2)CC1 (centres undefined)
#85 CC1CCc2ccccc2N1C(=O)c1ccc(Cl)cc1Cl (centres undefined)
#86 CCOC(=O)C1CCCN(C2CC(=O)N(c3ccc(Cl)c(Cl)c3)C2=O)C1 (centres undefined)
#87 O=c1cc(CSc2nc3ccccc3[nH]2)c2ccccc2[nH]1
#88 Cc1cc(C(F)F)n2nc(C(=O)Nc3ccc(S(=O)(=O)NC45CC6CC(CC(C6)C4)C5)cc3)nc2n1
Compound | 81 | 82 | 83 | 84 | 85 | 86 | 87 | 88
motility | 26% | 12% | 7% | 2% | 0% | -2% | -22% | 14%
motility viability | 4 | 4 | 4 | -5 | -3 | -2 | -8 | 6

#89 O=S(=O)(Oc1ccc(Cl)cc1C(=S)N1CCOCC1)c1ccc(Br)cc1
#90 O=C(CCS(=O)(=O)Cc1ccccc1)Nc1ccccc1Sc1ccccc1
#91 O=S(=O)(Nc1ccc(O)c(Sc2nc3ccccc3s2)c1)c1cccc2cccnc12
#92 Cc1ccc(SCC(=O)n2cnnc2N)cc1
#93 O=C(Nc1cc(C(F)(F)F)ccc1Cl)C1CCN(c2ccc(C(F)(F)F)cc2[N+](=O)[O-])CC1
#94 CCOC(=O)c1c(-c2ccc(F)cc2)csc1NC(=O)CSc1nnc2ccccn12
#95 O=C(Oc1ccc(Cl)c2cccnc12)c1cccs1
#96 O=S(=O)(Nc1cccc(C(F)(F)F)c1)c1c(F)cccc1F
Compound | 89 | 90 | 91 | 92 | 93 | 94 | 95 | 96
motility | 14% | -31% | -8% | -3% | -19% | 3% | i | -3%
motility viability | 2 | -19 | -8 | -3 | -4 | 3 | 60 | -3

#97 Cc1ccc(C(=O)N/C(=C/c2cccnc2)c2nc3ccccc3[nH]2)cc1
#98 COc1cccc(NC(=O)CSCc2n[nH]c(=O)[nH]2)c1
#99 O=C(Nc1ccccc1C1=NCCc2ccccc21)C1CCCCC1
#100 O=C(O)c1cn(Cc2ccccc2F)c2ccccc12
#101 CCOP(=O)(OCC)/C(=C(\NC(=O)c1ccccc1)C(=O)Nc1ccccc1C(F)(F)F)c1ccccc1
#102 COc1ccc(/C(N)=N/OC(=O)c2ccco2)cc1OC
#103 COc1ccc(C(C)(C)C)cc1NC(=S)Nc1ccc(S(=O)(=O)Nc2ncccn2)cc1
#104 CCOC(=O)c1c(-c2ccc(C)o2)csc1NC(=S)NC(=O)N(C)C
#105 Cc1c(C=O)c(C=O)c(C)n1Cc1ccc(C(=O)O)cc1
#106 COc1ccc2ccccc2c1/C=C(\C#N)C(N)=O
#107 C=C(C)CNC(=S)Nc1cccc(N)n1
Compound | 97 | 98 | 99 | 100 | 101 | 102 | 103 | 104 | 105 | 106 | 107
motility | 9% | -7% | -8% | 1% | 4% | -4% | -3% | -3% | 4% | 6% | 13%
motility viability | 6 | -6 | -5 | 30 | 4 | 6 | -8 | -4 | -2 | 18 | 6
